RGS16-Gao – modulates binding between human RGS16 and Galphao. bead-based flow cytometry RGS16-Galphao binding, fluorescence; actives lie on both sides. binding response (% of control), % at 10 µM. 0.38% of 220,000 active;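 active means below 25% or above 175%, edge rows of some plates excepted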;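 further: Galphao activated by GDP with aluminum fluoride before binding; 100% = wells without compound and 0% = beads without RGS; some results beyond the cut were filed as inactive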
Target sequence (O15492 whole entry, looked up): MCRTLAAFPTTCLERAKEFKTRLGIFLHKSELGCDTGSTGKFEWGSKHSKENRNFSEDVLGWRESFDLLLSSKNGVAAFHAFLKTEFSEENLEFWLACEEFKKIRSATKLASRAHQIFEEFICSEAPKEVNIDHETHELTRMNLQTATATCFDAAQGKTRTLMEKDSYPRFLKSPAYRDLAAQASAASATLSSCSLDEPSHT
Target sequence (P09471 whole entry, looked up): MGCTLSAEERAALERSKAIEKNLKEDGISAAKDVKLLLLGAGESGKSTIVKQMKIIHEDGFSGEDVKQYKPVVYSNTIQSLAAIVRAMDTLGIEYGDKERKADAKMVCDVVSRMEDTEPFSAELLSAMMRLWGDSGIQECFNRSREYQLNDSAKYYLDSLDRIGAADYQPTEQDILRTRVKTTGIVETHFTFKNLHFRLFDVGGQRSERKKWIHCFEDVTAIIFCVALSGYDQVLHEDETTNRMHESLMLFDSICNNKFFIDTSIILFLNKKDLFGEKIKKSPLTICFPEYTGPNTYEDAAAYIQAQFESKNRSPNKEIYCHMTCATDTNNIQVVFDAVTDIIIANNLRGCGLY
PKD1 inh – PKD1 (human) kinase inhibition. Q15139. PKD1 kinase fluorescence polarization assay. inhibition, %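 (about 10 µM by stock and volumes)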. 0.056% of 200,000 active;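 active means inhibition of 50% or more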;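 further: controls were vehicle for no effect and a reference inhibitor for full effect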
Insulin prom inh – TRM-6 insulin promoter activity inhibition. TRM-6 cells (human fetal islet line), insulin promoter-eGFP reporter, imaging; reporter expression induced with tamoxifen. inhibition, % at 2 µM. 0.9% of 130,000 active. AID 1273;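 active means inhibition above the mean plus 3 SD, with well images judged a real hit on visual review, cut at about 60% in these data, passing the limit was not always enough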
GALR2 ag – activates the human galanin receptor 2; O43603; GALR2-expressing cells, agonist activation read-out; activation, %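 (tested at 5 µM)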; 0.48% of 140,000 active; AID 803;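 active means above mean plus 3 SD of all compounds, about 5% in these data, not always enough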;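 further: 0% = vehicle buffer wells and 100% = reference agonist at full effect; tested in CHO reporter cells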
Target sequence (O43603 whole entry, looked up): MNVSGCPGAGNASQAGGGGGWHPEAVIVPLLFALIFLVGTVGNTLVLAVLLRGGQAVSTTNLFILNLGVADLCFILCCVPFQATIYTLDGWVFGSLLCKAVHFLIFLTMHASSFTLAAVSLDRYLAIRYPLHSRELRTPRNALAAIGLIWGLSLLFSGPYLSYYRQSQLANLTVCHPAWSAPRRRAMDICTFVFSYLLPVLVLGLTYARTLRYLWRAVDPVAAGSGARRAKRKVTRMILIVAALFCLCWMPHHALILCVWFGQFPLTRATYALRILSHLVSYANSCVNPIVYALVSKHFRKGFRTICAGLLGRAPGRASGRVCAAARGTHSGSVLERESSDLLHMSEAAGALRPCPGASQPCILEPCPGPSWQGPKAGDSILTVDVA
HSV augment – increases HSV replication in cells; HSV replication augmentation in cells, fold increase; maximum fold increase; 0.005% of 220,000 active;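 active means peak rise of 1.5-fold or more in the series; tested in PC3 cells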;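 further: first round at 10 µM; read as green reporter fluorescence; hits show the peak of a series up to 25 µM; 1 = signal of infected wells without compound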
Insulin prom inh cell count – also measured in Insulin prom inh; calls as there; normalized cell count, %; measured here: cell count, toxicity; reference of the scale not given here;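 cells exposed to compound for 48 h; stained nuclei by imaging scaled within each plate; lower means fewer cells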
HSV augment primary fold – also measured in HSV augment; calls as there; fold increase; compound at 10 µM; measured here: primary screen fold increase 10 uM; tested in PC3 cells;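 GFP signal in the first replicate; 1 = infected wells without compound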
* = called active by the depositor; i = inactive; · = no result given; [ ] = dose if it differs, or a comment.

Order of results – Insulin prom inh cell count, HSV augment, PKD1 inh, GALR2 ag, RGS16-Gao, Insulin prom inh, HSV augment primary fold
#1 Cc1c(Br)ccc(NC(=O)COc2ccccc2C(N)=O)c1C
→ ·, i, 4, ·, 101, ·, 1.1
#2 COc1ccc2cc(C)c3nnc(SCC(=O)Nc4nc(-c5ccccc5)cs4)n3c2c1
→ ·, i, 2, -2.7, 105, ·, 0.87
#3 CC1=CCC(C(=O)O)(C(=O)N/N=C/c2cccs2)C(c2ccc(F)cc2)C1 (centres undefined)
→ 198, i, -1, -1.4, 102, 6, 1.2
#4 O=C1N(Cc2cccnc2)C[C@@H]2C[C@@H](c3ccc(C(F)(F)F)cc3)N3CCC[C@@]123
→ ·, i, 2, ·, 99, ·, 1.1
#5 COc1ccc(OC)c(C(c2nnnn2Cc2ccco2)N2CCN(C)CC2)c1 (centres undefined)
→ ·, i, 8, ·, 105, ·, 1
#6 O=C(/C=C/c1ccc(OC2CSC2)cc1)c1ccc(Cl)cc1
→ 104, i, -15, 0.5, 32, -4, 1
#7 COCCN1CCn2c(nc3cc(NC(=O)Cn4nc(C)c5ccccc5c4=O)ccc32)C1
→ ·, i, ·, ·, 101, ·, 0.95
#8 O=S(=O)(Nn1c(O)c(C=C2N=c3ccccc3=N2)sc1=S)c1ccccc1
→ ·, i, ·, ·, 98, ·, 1.4
#9 N=C1C(c2nc3ccccc3c(=O)[nH]2)=C(O)CN1CCO
→ 73, i, -2, 0.1, 104, 13, 1
#10 CCCCn1c(=O)[nH]c(=O)c2c1nc(COc1ccc(C#N)cc1)n2CCC
→ ·, i, -1, -2.2, 123, ·, 1
#11 CC1(C)CC(=O)c2sc(NC(=O)CN3CCCCC3)nc2C1
→ ·, i, -1, 0.0, 96, ·, 0.9
#12 O=C(NCc1cccs1)C1CCC(CNS(=O)(=O)c2ccc(Br)s2)CC1 (centres undefined)
→ 130, i, -1, -4.7, 105, -8, 0.91
#13 O=[N+]([O-])c1ccc(C2Oc3ccccc3C3CC(c4ccccc4)=NN32)s1 (centres undefined)
→ 133, i, -1, -1.6, 101, -79, 0.73
#14 Cc1ccc(S(=O)(=O)N/N=C\c2cc([N+](=O)[O-])ccc2Cl)cc1
→ 125, i, 10, -4.8, 103, 29, 0.72
#15 Cc1nc(NC(=S)NC(=O)c2cncc(Br)c2)ccc1Br
→ ·, i, 3, ·, 100, ·, 0.94
#16 Cn1c(-c2ccccc2Br)n[nH]c1=S
→ 137, i, -2, -0.5, ·, 16, 1
#17 CCC(c1nnnn1C(C)(C)C)N1CCN(c2cc(Cl)ccc2C)CC1 (centres undefined)
→ 112, i, -1, -2.3, 99, -58, 0.95
#18 Cc1nc(SCc2ccccc2)c([N+](=O)[O-])[nH]1
→ 49, i, -4, 0.3, 29, 35, 1
#19 Cc1ccc(CNC(=S)Nc2ccc(C)c([N+](=O)[O-])c2)cc1
→ 154, i, 11, -2.8, 94, -6, 1.1
#20 COc1cc2ccccc2cc1C(=O)OCC(=O)N1CCOCC1
→ 95, i, 2, -1.0, 69, 19, 0.9
#21 O=C(Nc1ccc(OC(F)F)c(Cl)c1)c1cccc(OC(F)F)c1
→ 151, i, 0, 0.0, 94, 30, 0.65
#22 Cc1cccc(N2C(=O)C(O)=C(C(=O)c3cccs3)C2c2ccccc2)n1 (centres undefined)
→ ·, i, ·, ·, 108, ·, 1.1
#23 CC(C)CCNC(=O)c1cc(-c2ccco2)nc2ccccc12
→ 119, i, 1, -2.0, 99, -11, 0.86
#24 CC1(C)Cc2c(sc3nc(SCC(=O)NCc4ccco4)n(-c4ccccc4)c(=O)c23)CS1
→ 140, i, -6, -1.0, 80, 64, 0.89
#25 Cc1cccc(C)c1NC(=O)c1sccc1SCC#N
→ 112, i, 14, -3.3, 30, 38, 1.2
#26 CC(C(=O)NC1=NCCS1)(C(F)(F)F)C(F)(F)F
→ 64, i, -7, 0.6, 109, 0, 0.98
#27 COc1ccc(C)cc1-n1c(=O)c2ccccc2c2ccccc2c1=O
→ 93, i, -12, ·, 103, -122, 0.81
#28 CC(=O)c1cccc(NC(=O)N2CCC(c3nnc(SCC(N)=O)n3C)CC2)c1
→ ·, i, 7, -1.6, 108, ·, 1.1
#29 N#Cc1nc(-c2ccccc2)oc1N1CCCCC1
→ 126, i, -17, 0.1, 89, -6, 0.87
#30 CC(C)NC(=O)COC(=O)c1ccc(Cl)c(S(=O)(=O)N2CCCC2)c1
→ 105, i, -8, -2.4, 100, -13, 1.1

Some of these compounds in order of molecular weight, smallest number first:
Order of results – Insulin prom inh cell count, HSV augment, PKD1 inh, GALR2 ag, RGS16-Gao, Insulin prom inh, HSV augment primary fold
#16 Cn1c(-c2ccccc2Br)n[nH]c1=S
→ 137, i, -2, -0.5, ·, 16, 1
#9 N=C1C(c2nc3ccccc3c(=O)[nH]2)=C(O)CN1CCO
→ 73, i, -2, 0.1, 104, 13, 1
#25 Cc1cccc(C)c1NC(=O)c1sccc1SCC#N
→ 112, i, 14, -3.3, 30, 38, 1.2
#23 CC(C)CCNC(=O)c1cc(-c2ccco2)nc2ccccc12
→ 119, i, 1, -2.0, 99, -11, 0.86
#11 CC1(C)CC(=O)c2sc(NC(=O)CN3CCCCC3)nc2C1
→ ·, i, -1, 0.0, 96, ·, 0.9
#27 COc1ccc(C)cc1-n1c(=O)c2ccccc2c2ccccc2c1=O
→ 93, i, -12, ·, 103, -122, 0.81
#21 O=C(Nc1ccc(OC(F)F)c(Cl)c1)c1cccc(OC(F)F)c1
→ 151, i, 0, 0.0, 94, 30, 0.65
#17 CCC(c1nnnn1C(C)(C)C)N1CCN(c2cc(Cl)ccc2C)CC1 (centres undefined)
→ 112, i, -1, -2.3, 99, -58, 0.95
#4 O=C1N(Cc2cccnc2)C[C@@H]2C[C@@H](c3ccc(C(F)(F)F)cc3)N3CCC[C@@]123
→ ·, i, 2, ·, 99, ·, 1.1
#15 Cc1nc(NC(=S)NC(=O)c2cncc(Br)c2)ccc1Br
→ ·, i, 3, ·, 100, ·, 0.94

New compounds follow
Order of results – Insulin prom inh cell count, HSV augment, PKD1 inh, GALR2 ag, RGS16-Gao, Insulin prom inh, HSV augment primary fold
#31 COc1ccccc1CNS(=O)(=O)c1cc(C)ccc1OC
→ 86, i, 1, -3.0, 104, 0, 0.94
#32 Cc1c(C(=O)Nc2ccccn2)oc2ccccc12
→ 99, i, 4, -0.8, 94, -23, 0.99
#33 COc1cc(C(c2c(C)[nH][nH]c2=O)c2c(C)[nH][nH]c2=O)cc([N+](=O)[O-])c1O
→ ·, i, -1, ·, 98, ·, 0.9
#34 C=CCNCC(=O)Nc1ccccc1SCC(=O)Nc1ccsc1C(=O)OC
→ ·, i, -7, ·, 101, ·, 1
#35 COC(=O)CCC(=O)NC(=S)Nc1ccc(S(=O)(=O)Nc2cc(OC)nc(OC)n2)cc1
→ 123, i, 0, 0.0, 102, 0, 0.97
#36 CC(=O)NC(C)c1ccc(Cl)c(Cl)c1 (centres undefined)
→ ·, i, -5, -1.7, i, ·, 0.64
#37 COc1ccc(N(C(=O)COc2ccccc2)C2C=CS(=O)(=O)C2)cc1 (centres undefined)
→ 44, i, 4, 1.2, 105, 29, 0.81
#38 O=C(Nc1ccc(F)cc1)OCCOc1ccc(Br)cc1
→ ·, i, ·, ·, 104, ·, 1.1
#39 COc1ccccc1N(CC(=O)N1CCc2ccccc2C1)S(C)(=O)=O
→ ·, i, -2, ·, 101, ·, 0.97
#40 Cc1ccc(C2=N/C(=C\N3CCCCC3)C(=O)O2)cc1
→ 125, i, -6, -2.6, 204*[activator], 36, 1.2
#41 COc1ccc(N=c2oc3cc(O)ccc3cc2C(=O)Nc2ccccn2)cc1OC
→ ·, i, 0, ·, 99, ·, 0.89
#42 CCOc1cc(/C=N/NC(=O)OC)ccc1OCCSc1ccc(Cl)cc1
→ 102, i, -7, -0.1, 97, 49, 0.93
#43 COC(=O)c1sc2cc(C(F)(F)F)cnc2c1-c1ccccn1
→ ·, i, -4, ·, 101, ·, 0.95
#44 N#CCN1C(=S)N=C(Nc2cccc(Cl)c2)C12CCCCC2
→ 134, i, -9, -0.2, 102, -14, 0.99
#45 Cn1ccnc1SCC(=O)Nc1ccc2c(c1)OC(F)(F)O2
→ 129, i, -6, ·, 99, -14, 1.2
#46 CCN(CCNC(=O)C1CCN(S(=O)(=O)c2cccc3cccnc23)CC1)c1ccccc1
→ 57, i, -3, 0.7, 104, -57, 1
#47 COC(=O)c1cccc2c1-c1ccccc1/C2=N/O
→ 129, ·, 70*, -2.8, 103, 3, ·
#48 O=C(Cn1nc(CNc2ccc(Cl)cc2)[n+]2c1CCCCC2)c1ccccc1
→ ·, i, 2, -0.8, 102, ·, 0.81
#49 O=C(NCc1ccccc1)N1CCN(c2ccccc2F)CC1
→ 85, i, -7, -0.1, 102, -92, 1
#50 CCC1C(C#N)=C(SC)NC2=C1C(=O)CC(C)(C)C2 (centres undefined)
→ ·, i, 15, -0.5, 104, ·, 1.1
#51 O=C(CN1C(=O)C2C3CC(C(Br)C3Br)C2C1=O)N1CCOCC1 (centres undefined)
→ 104, i, 1, -1.0, 101, -17, 0.86
#52 CC1CCCCN1CCn1c(=S)[nH]c2ncccc2c1=O (centres undefined)
→ 111, i, 3, -1.8, 100, 62, 1
#53 COc1ccc(N2C3=[N+](CCCC3)CC2(C)O)cc1 (centres undefined)
→ ·, i, ·, ·, 93, ·, 1.1
#54 CCn1c(SCC(=O)N2CCCCC2)nnc1-c1ccc(S(=O)(=O)N2CCN(C)CC2)cc1
→ ·, i, -4, -1.8, 100, ·, 0.93
#55 CCOc1ccc(OCc2ccc(C(=O)NN)o2)cc1
→ ·, i, ·, ·, 103, ·, 0.91
#56 CC1=NN(c2ccccc2)C(=O)/C1=C\C=C\c1ccccc1
→ ·, i, ·, ·, 93, ·, 0.68
#57 Cc1ccc(-c2c(C#N)c(N)n(-c3ccccc3)c(=O)c2C#N)cc1
→ ·, ·, 3, -0.2, 97, ·, ·
#58 O=C(c1cccc(S(=O)(=O)N2CCCCC2)c1)N1CCOCC1
→ 52, i, 4, -0.6, 114, -182, 0.9
#59 COc1ccccc1/C=C/C=N/n1c(-c2ccccc2)n[nH]c1=S
→ ·, i, ·, ·, 101, ·, 0.98
#60 CCOC(=O)C1Cn2c(nc3c(c2=O)C2(CCCC2)Cc2ccccc2-3)S1 (centres undefined)
→ ·, i, 4, -3.1, 97, ·, 0.87
#61 COC(=O)C1=C(N)Oc2cc(C)n(Cc3cccnc3)c(=O)c2C1c1cccc(OC)c1OC (centres undefined)
→ ·, i, -10, -1.7, 118, ·, 1.1
#62 Cc1nnc(SCc2ccccc2)[nH]c1=O
→ ·, i, -4, ·, 102, ·, 0.9
#63 O=C(O)C1=C[C@@H](c2ccc(F)cc2)C[C@@H](OCCCCO)O1
→ ·, i, ·, ·, 103, ·, 0.94
#64 CCC1(CC)Cc2ccccc2C(=O)N1
→ ·, i, ·, ·, 99, ·, 1.1
#65 O=C(CSCc1c(Cl)cccc1Cl)Nc1ccc2c(c1)OCCO2
→ 64, i, -9, -1.7, 106, 11, 1
#66 O=C(Nc1cccnc1)c1scc2c1OCCO2
→ 140, i, -12, -2.0, 101, 50, 1
#67 CCOCCCNC(=O)c1ccc2c(=O)n(CCCOCC)c(=S)[nH]c2c1
→ 94, i, -1, ·, 109, 27, 0.96
#68 COc1cc(OC)cc(C(=O)NCC(=O)OCC(=O)c2cc(C)n(Cc3ccco3)c2C)c1
→ 147, i, 2, -3.1, 36, -17, 1.1
#69 COCCCNC(=O)c1ccc(NC(C)=O)cc1
→ 127, i, 10, ·, 95, -50, 1.1
#70 Cc1cc(NC(=O)CSC2=NCCS2)no1
→ 120, i, 0, -1.4, 103, -1, 0.92
#71 CCCN1CNC(=S)N(c2ccc(C)cc2C)C1
→ ·, i, ·, ·, 97, ·, 0.96
#72 O=C(NCCO)Nc1ccc2nc(-c3ccco3)c(-c3ccco3)nc2c1
→ ·, i, 4, ·, 17*, ·, 1.2
#73 NC1=NC[C@H](Cc2ccc(O)cc2)N1CCc1cccc2ccccc12
→ ·, i, ·, ·, 105, ·, 0.87
#74 CN(CCc1ccccn1)c1ccc([N+](=O)[O-])cn1
→ ·, i, ·, ·, 104, ·, 0.92
#75 COc1cccc(C(=O)NC2CCN(C(=O)N3CCCCC3)CC2)c1
→ 149, i, 1, -0.9, 104, 50, 0.93
#76 CC(=O)N(Cc1ccc(Br)cc1)c1cccc(C)c1C
→ 127, i, 4, ·, 101, 29, 0.92
#77 CSc1ncccc1C(=O)OCc1ccc(Br)cc1
→ ·, i, 2, ·, 102, ·, 0.92
#78 Cc1c(C)n(C(=O)CN2CCN(c3ccccc3)CC2)c2ccccc12
→ 90, i, 2, -1.6, 102, -19, 0.76

Bioassay records as filed in PubChem BioAssay.
